# total CFTR – compounds raising F508del-CFTR protein level – cell-based, HeLa F508del-CFTR, immunofluorescence, viability, primary screen (AID 1224863); HeLa F508del-CFTR, immunofluorescence total CFTR, 24 h; by the record results were divided by relative cell number; some inactives read as strong as hits; calls, or highest fold increase where a dose series was run; 0.1% of 10,000 active; in the data nearly all actives have a first-pass fold increase above 1.5; a few of its hits are not listed in these tables;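 also: total CFTR protein by anti-CFTR immunofluorescence in fixed cells; first pass at 25 µM or 10 µg/mL by library and series up to twice that; 1 = untreated cells; first-pass hits also needed half or more of the cells alive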
# total CFTR fold 25 µM – further read-out of total CFTR, marked with its call; fold increase; measured here: primary screen single dose 25 uM; library dosed in µM
# total CFTR fold 10 ug/mL – second read-out of total CFTR, no call of its own (marks repeat the call); fold increase; measured here: primary screen 10 ug/mL
# total CFTR viability 25 µM – further read-out of total CFTR, marked with its call; viability, %; measured here: primary viability 25 uM; library dosed in µM;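 0% = killed and 100% = untreated cells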
# total CFTR viability 10 ug/mL – also measured in total CFTR; calls as there; viability, %; measured here: primary viability 10 ug/mL;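 0% = killed and 100% = untreated cells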
# * marks the source's active call; other numbers are inactive results; i = inactive; · = no result given; & = joins results of further samples.
SMILES,total CFTR,total CFTR fold 10 ug/mL,total CFTR viability 10 ug/mL,others
O=C1CCCc2nc3ccccc3c(-c3ccccc3)c21,i,1,96,
NC(=O)c1ncn([C@@H]2O[C@H](CO)[C@@H](O)[C@H]2O)c1O,i,·,·,total CFTR fold 25 µM=0.98;total CFTR viability 25 µM=98
c1ccc(-n2nnnc2N2CCCC(c3nc4ccccc4[nH]3)C2)cc1 (stereo not drawn),i,0.96,112,
N#Cc1ccc(CS(=O)(=O)NCc2cccnc2)cc1,i,1,99,
CN(Cc1cn(-c2ccccc2)nc1-c1ccccc1)S(=O)(=O)c1cn[nH]c1,i,1,69,
N#Cc1ccc(NCc2ccc(N3CCCC3)nc2)nc1,i,0.98,97,
NCCCNCCSP(=O)(O)O,i,·,·,total CFTR fold 25 µM=0.73&1.1;total CFTR viability 25 µM=55&91
Cc1sc2nc(CSC(C)C(=O)NCCCOC(C)C)[nH]c(=O)c2c1C (stereo not drawn),i,1.2,95,
N#CCSc1c(Cl)cccc1Cl,i,1,85,
O=S(=O)(Cc1coc(-c2ccc(F)cc2)n1)Cc1nc2ccccc2s1,i,0.87,79,
COc1cc(/C=C(/C#N)c2nnc3n2CCCCC3)cc(Cl)c1OC,i,0.95,91,
Cc1noc(C)c1S(=O)(=O)N(C)C(C)c1ccc(Cl)cc1Cl (stereo not drawn),i,0.95,78,
COc1ccc2c3c1O[C@H]1C[C@@H](O)C=C[C@@]31CCN(C)C2,i,·,·,total CFTR fold 25 µM=1.1&1;total CFTR viability 25 µM=101&92
OC(CN1CCc2sccc2C1c1cccs1)c1ccc(Cl)cc1 (stereo not drawn),i,0.84,82,
CCOC(=O)C1C(c2ccccc2)N(C)C(=O)N(C)C1(O)C(F)(F)F (stereo not drawn),i,1.2,77,
CCN1C(=O)NC(c2ccccc2)C1=O (stereo not drawn),i,·,·,total CFTR fold 25 µM=1;total CFTR viability 25 µM=109
CCOc1ccc(C(C2C(=O)CC(C)(C)CC2=O)C2C(=O)CC(C)(C)CC2=O)cc1,i,0.94,89,
CC(C)Cn1nnnc1SCc1ccc(OCC(F)(F)F)cc1,i,0.97,104,
CCONC(=O)c1c(C)oc(-n2cccc2)c1C#N,i,1,107,
CS(=O)(=O)c1ccc(S(=O)(=O)Nc2ccc3c(c2)OC(F)(F)O3)cc1,i,0.91,98,
CCC(C)(C)NS(=O)(=O)c1ccc(S(=O)(=O)C(F)F)cc1,i,0.94,98,
CC(=O)c1c(C)[nH]c(C(=O)COC(=O)c2sc(NC(=O)C(C)(C)C)cc2C)c1C,i,0.76,55,
Cc1cc(-c2ccc(C(C)(C)C)cc2)nc2ccccc12,i,1.1,77,
CC(C)(C(=O)O)c1ccc(C(O)CCCN2CCC(C(O)(c3ccccc3)c3ccccc3)CC2)cc1 (stereo not drawn),i,·,·,total CFTR fold 25 µM=1;total CFTR viability 25 µM=90

# 5 consecutive records out of the list so far, quoted:
SMILES,total CFTR,total CFTR fold 10 ug/mL,total CFTR viability 10 ug/mL,others
COc1ccc2c3c1O[C@H]1C[C@@H](O)C=C[C@@]31CCN(C)C2,i,·,·,total CFTR fold 25 µM=1.1&1;total CFTR viability 25 µM=101&92
OC(CN1CCc2sccc2C1c1cccs1)c1ccc(Cl)cc1 (stereo not drawn),i,0.84,82,
CCOC(=O)C1C(c2ccccc2)N(C)C(=O)N(C)C1(O)C(F)(F)F (stereo not drawn),i,1.2,77,
CCN1C(=O)NC(c2ccccc2)C1=O (stereo not drawn),i,·,·,total CFTR fold 25 µM=1;total CFTR viability 25 µM=109
CCOc1ccc(C(C2C(=O)CC(C)(C)CC2=O)C2C(=O)CC(C)(C)CC2=O)cc1,i,0.94,89,

# Remaining list, next part:
SMILES,total CFTR,total CFTR fold 10 ug/mL,total CFTR viability 10 ug/mL,others
CC(C)(Oc1ccc(C(=O)c2ccc(Cl)cc2)cc1)C(=O)O,i,·,·,total CFTR fold 25 µM=1;total CFTR viability 25 µM=92
O=c1c2ccccc2nnn1CSc1nnnn1-c1cccc(Cl)c1,i,0.96,93,
c1ccc(-c2ccc(C(c3ccccc3)n3ccnc3)cc2)cc1 (stereo not drawn),i,·,·,total CFTR fold 25 µM=0.91&0.83;total CFTR viability 25 µM=91&88
CSCCC1NC(=S)N(CCCn2cccn2)C1=O (stereo not drawn),i,1.2,100,
COCCCOc1ccnc(CS(=O)c2nc3ccccc3[nH]2)c1C (stereo not drawn),i,·,·,total CFTR fold 25 µM=1;total CFTR viability 25 µM=105
CNc1cccc(Cl)c1Cl,i,1.1,96,
CN(Cc1cnn(C)c1)S(=O)(=O)c1ccc2c(c1)CCCC2,i,0.94,90,
O=S(=O)(c1cccs1)N1CCN(c2nc(N3CCCC3)nc(N3CCCC3)n2)CC1,i,1.1,97,
O=C(c1sc2ccccc2c1Cl)N1CCN(S(=O)(=O)N2CCOCC2)CC1,i,0.89,83,
CCSc1cc(C(=O)O)ccn1,i,1,95,
CC1CCCN(C(=O)Nc2cc3c(cc2Br)OCCO3)C1 (stereo not drawn),i,0.96,89,
NCc1ccc(N2CCC(CO)CC2)nc1,i,0.91,88,
N[C@@H](C(=O)N[C@@H]1C(=O)N2C(C(=O)O)=C(Cl)CS[C@H]12)c1ccccc1,i,·,·,total CFTR fold 25 µM=1;total CFTR viability 25 µM=85
CC(c1nnc(-c2cccs2)o1)n1cnc2c1c(=O)n(C)c(=O)n2C (stereo not drawn),i,1,99,
Cc1c(N)n[nH]c1C(F)(F)F,i,0.98,93,
CSc1ccc(CN(C)Cc2cc3c(cc2O)OCO3)cc1,i,0.95,88,
O=S(=O)(c1cccs1)N(C1CC1)C1CCc2ccccc21 (stereo not drawn),i,0.9,73,
CCn1c(CN2c3cccc4cccc(c34)S2(=O)=O)nc2cc(S(=O)(=O)N(C)C)ccc21,i,1.1,100,
CCOC(=O)c1cnn2c(C(=O)OCC)c(CCCO)cnc12,i,1.2,101,
Cc1ccc(-c2noc(CS(=O)(=O)Cc3ccc(C(C)C)cc3)n2)cc1,i,0.94,92,
CN(Cc1ccc(C#N)cc1)S(=O)(=O)c1ccc(Br)cc1,i,0.92,81,
N#CCSc1nccn1-c1ccc(Br)cc1,i,1,87,
Cc1nnc(SC(c2ccccc2)c2ccccc2)n1-c1ccccc1,i,0.95,85,
CNCCC(Oc1ccccc1OC)c1ccccc1 (stereo not drawn),i,·,·,total CFTR fold 25 µM=1;total CFTR viability 25 µM=97

# Retrieved one by one from the entries so far, 6 records:
SMILES,total CFTR,total CFTR fold 10 ug/mL,total CFTR viability 10 ug/mL,others
c1ccc(-n2nnnc2N2CCCC(c3nc4ccccc4[nH]3)C2)cc1 (stereo not drawn),i,0.96,112,
CSc1ccc(CN(C)Cc2cc3c(cc2O)OCO3)cc1,i,0.95,88,
COc1cc(/C=C(/C#N)c2nnc3n2CCCCC3)cc(Cl)c1OC,i,0.95,91,
CC1CCCN(C(=O)Nc2cc3c(cc2Br)OCCO3)C1 (stereo not drawn),i,0.96,89,
CC(=O)c1c(C)[nH]c(C(=O)COC(=O)c2sc(NC(=O)C(C)(C)C)cc2C)c1C,i,0.76,55,
CN(Cc1cnn(C)c1)S(=O)(=O)c1ccc2c(c1)CCCC2,i,0.94,90,

# (further entries)
SMILES,total CFTR,total CFTR fold 10 ug/mL,total CFTR viability 10 ug/mL,others
CC(=O)N[C@@H]1[C@@H](C(O)[C@H](O)CO)O[C@](O)(C(=O)O)C[C@@H]1O (stereo partly drawn),i,·,·,total CFTR fold 25 µM=1.1;total CFTR viability 25 µM=87
CCOc1ccc2nc(S(N)(=O)=O)sc2c1,i,·,·,total CFTR fold 25 µM=0.98;total CFTR viability 25 µM=84
CN(Cc1cc(=O)n2cc(Cl)ccc2n1)C1CCc2ccccc21 (stereo not drawn),i,1.1,94,
CC(C)Oc1ccc(C#N)cc1N,i,0.79,92,
N#CCCN(CCC#N)Cn1nc(-c2cccs2)n(CC2CCCO2)c1=S (stereo not drawn),i,1.1,84,
O=C(c1c[nH]c2ccccc12)C(OC(=O)C12CC3CC(CC(C3)C1)C2)c1ccccc1 (stereo not drawn),i,1,85,
Nc1cc(C(Cl)=C(Cl)Cl)c(S(N)(=O)=O)cc1S(N)(=O)=O,i,·,·,total CFTR fold 25 µM=0.97&1.1;total CFTR viability 25 µM=105&110
COc1ccc(S(=O)(=O)Nc2ccc(OC3CCCC3)cc2)c([N+](=O)[O-])c1,i,0.93,92,
CCC1CCc2sc(-c3nn(CN4CCOCC4)c(=S)n3C)cc2C1 (stereo not drawn),i,0.97,91,
Cc1csc(CN2C(=O)c3ccccc3C2(O)c2ccccc2)n1 (stereo not drawn),i,1.2,85,
O=C1NC(Cc2ccccc2)(Cc2ccccc2)C(=O)N1CN1CCc2ccccc2C1,i,1,90,
COc1ccc(/C=C/c2nc(-c3ccc(Cl)cc3)cs2)c(OC)c1OC,i,0.89,91,
Cc1cc(=O)[nH]c(C)n1,i,1.1,96,
CCC1CCC(N(C(=O)CCN2C(=O)NC3(CCCCC3)C2=O)C2CC2)CC1 (stereo not drawn),i,0.9,94,
CC1=C(/C=C/C(C)=C\C=C\C(C)=C/C(=O)O)C(C)(C)CCC1,i,·,·,total CFTR fold 25 µM=1;total CFTR viability 25 µM=95
COC(=O)c1cc(S(=O)(=O)N2CCCCC2C)c(Br)s1 (stereo not drawn),i,0.98,110,
COC(=O)c1sc(S(=O)(=O)NC2CCCC(C(F)(F)F)C2)c(C(=O)OC)c1C (stereo not drawn),i,0.92,98,
Cc1[nH]c(=S)[nH]c(=O)c1CCC(=O)N1CCOCC1,i,1.1,108,
O=C(N1CCCN(Cc2ccccc2)CC1)C12CC3CC(CC(C3)C1)C2,i,1.1,110,
CN(Cc1ccc(Cl)cc1)Cn1nc2n(c1=S)CCCCC2,i,1.1,93,
Cc1ccc2c(Cl)cc(Cl)c(OCc3nnc4n(C)c(=O)c5ccccc5n34)c2n1,i,1,101,
O=C1NC(c2ccccc2)(c2ccccc2)C(=O)N1CN1CCN(Cc2ccc3c(c2)OCO3)CC1,i,1.1,90,
O=C(CCc1ccc2c(c1)OCO2)N1CCc2ccccc21,i,1.1,91,
CC1C(C#N)=C(SCC(=O)Nc2ccc(Br)cc2)NC2=C1C(=O)CC(C)(C)C2 (stereo not drawn),i,0.86,102,
O=C(CNC(=O)C1=CN2CCS(=O)(=O)N=C2C=C1)NC1CC1,i,1.2,99,
O=C(OCc1nc(-c2ccc(F)cc2)no1)c1ccc(OCC2CCCO2)cc1 (stereo not drawn),i,1,90,
Cc1ccc(S(=O)(=O)N2CCCN(Cn3nnn(C)c3=S)CC2)cc1,i,1.1,88,
C/C=C/C=C/C(=O)NC1CCN(C(=O)C2CC2)CC1,i,0.92,85,
O=S(=O)(Nc1cccc(-c2nnnn2C2CC2)c1)c1cc(Br)ccc1Br,i,0.97,94,
O=S(=O)(CCSc1nncs1)c1cc(Cl)ccc1Cl,i,0.96,91,
Cc1ccc(-c2csc3ncnc(N4CCN(C(=O)OC(C)(C)C)CC4)c23)cc1,i,1.1,104,
COc1ccc(OC)c(C2CCCN2Cn2c(C)nc3ccccc32)c1 (stereo not drawn),i,1,103,
Cc1cc(C)n2c(=S)n(CN(C)Cc3ccccc3Cl)nc2n1,i,0.97,97,
Clc1ccc(C(Cn2ccnc2)OCc2csc3c(Cl)cccc23)c(Cl)c1 (stereo not drawn),i,·,·,total CFTR fold 25 µM=0.87;total CFTR viability 25 µM=81
O=C(/C=C/c1ccc(Oc2ccc(F)cc2)c([N+](=O)[O-])c1)c1ccc(OC(F)F)cc1,i,1,63,
CS(=O)(=O)N1CCCN(Cn2nc(-c3cccs3)oc2=O)CC1,i,0.89,100,
O=S(=O)(NC1CCN(C2CC2)CC1)c1ccccc1Br,i,1.1,97,
CCOC(=O)C1=C(COC(=O)c2cc3c(C)nn(CC(C)C)c3s2)NC(=O)NC1C (stereo not drawn),i,0.85,82,
O=S(=O)(CCn1cnc2ccccc21)N1CCN(c2ncc(C(F)(F)F)cc2Cl)CC1,i,0.86,94,
CC(Cn1cccn1)NC(=O)C1CCCCC1 (stereo not drawn),i,0.96,94,
O=S(=O)(NC1CCOc2ccccc21)c1cccs1 (stereo not drawn),i,0.91,81,
CCC(=O)N1CCCC(C(=O)O)C1 (stereo not drawn),i,1,103,
O=C(C1CC(=O)N(c2ccc3c(c2)OCCO3)C1)N1CCCCCC1 (stereo not drawn),i,0.9,102,
c1ccc2nc(NCC3CCCCC3)cnc2c1,i,0.94,79,

# Some of the compounds tested; count on the stated rates, not on these rows.
